High-throughput results as filed in PubChem BioAssay.
GIRK2 act: activators of human GIRK2 potassium channels; G protein-activated inward rectifier potassium channel 2 (Homo sapiens), P48051; HEK293-GIRK2 thallium flux, Thallos fluorescence; calls only for hits at 25 µM; 0.05% of 63,000 active; AID 1259325, 2017;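 active = among the strongest 0.2% of first-round signals and kept after retests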;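 also: first round at about 10 µM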
Target sequence (P48051 whole entry, looked up): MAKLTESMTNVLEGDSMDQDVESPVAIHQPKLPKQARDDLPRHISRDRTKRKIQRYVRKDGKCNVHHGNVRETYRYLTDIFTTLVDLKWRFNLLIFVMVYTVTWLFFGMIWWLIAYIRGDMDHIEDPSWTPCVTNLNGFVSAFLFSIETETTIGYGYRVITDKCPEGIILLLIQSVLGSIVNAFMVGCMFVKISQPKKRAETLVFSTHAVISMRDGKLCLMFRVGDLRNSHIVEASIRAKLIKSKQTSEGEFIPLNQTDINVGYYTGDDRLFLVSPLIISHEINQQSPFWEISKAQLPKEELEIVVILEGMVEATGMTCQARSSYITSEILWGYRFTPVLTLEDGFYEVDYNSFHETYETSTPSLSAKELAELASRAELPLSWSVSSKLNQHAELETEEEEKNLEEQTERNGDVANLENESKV
Calls only; i = inactive. Some of the compounds tested; the hit share may differ from the screen's.

Structure	GIRK2 act
CCC(=O)N1CCCc2cc(NC(=O)NC3CCCCC3)ccc21	i
COc1nn(C)cc1C(=O)NCC1CCN(S(=O)(=O)c2cccnc2)CC1	i
Cc1nc2sc(C)c(C)n2c(=O)c1NC(=O)CSCc1ccccc1	i
Cc1cccc(N2CCN(c3nccnc3SCC(=O)Nc3ccccc3Cl)CC2)c1C	i
O=C(CCn1ccc(=O)[nH]c1=O)N1CCC(COCc2ccccc2)CC1	i
CC(=O)Nc1cccc(NC(=O)C2(c3cccs3)CCCC2)c1	i
Cc1c(Cl)cccc1S(=O)(=O)N1CCN(CC(F)(F)F)CC1	i
Cc1nc(C)c(-c2nnc(NC(=O)c3snnc3C)o2)s1	i
COc1ccc(-n2c(C)nc3ccc(NC(=O)CNC(=O)c4ccccc4)cc3c2=O)cc1	i
O=C(NCCOc1ccc2nnc(-c3ccccc3)n2n1)c1cc(-c2cccs2)[nH]n1	i
CCc1ccc(/C=C/C(=O)N(C)Cc2cc(=O)[nH]c3ccccc23)s1	i
O=C(CN1CCC(COCc2ccc(F)cc2)CC1)NCCc1ccccc1	i
CC(C)c1ccc(NC(=O)N2CCN(c3cc(N4CCCC4)ncn3)CC2)cc1	i
COc1ccc(NC(=O)Cc2cc(=O)[nH]c(SCc3ccc(F)cc3)n2)cc1Cl	i
CCN(C(=O)COC(=O)CC(C)CC1=NS(=O)(=O)c2ccccc2N1)c1cccc(C)c1 (centres undefined)	i
COc1cccc2sc(N3CC(OC(=O)/C=C/c4ccc5c(c4)OCO5)C3)nc12	i
COC(=O)c1ccccc1NC(=O)CSc1cc(-c2ccncc2)nc(C)n1	i
COc1cc(C)c(S(=O)(=O)n2cnc3ccccc32)cc1C(C)C	i
CC(C)c1ccccc1NC(=O)Cc1cc(=O)[nH]c(SCc2ccc(F)cc2)n1	i
COc1cccc(Oc2coc3cc(OC(=O)c4cccs4)ccc3c2=O)c1	i

Next part; it opens with the 5 that closed the last part.
Structure	GIRK2 act
COc1cccc2sc(N3CC(OC(=O)/C=C/c4ccc5c(c4)OCO5)C3)nc12	i
COC(=O)c1ccccc1NC(=O)CSc1cc(-c2ccncc2)nc(C)n1	i
COc1cc(C)c(S(=O)(=O)n2cnc3ccccc32)cc1C(C)C	i
CC(C)c1ccccc1NC(=O)Cc1cc(=O)[nH]c(SCc2ccc(F)cc2)n1	i
COc1cccc(Oc2coc3cc(OC(=O)c4cccs4)ccc3c2=O)c1	i
CSc1cccc(NC(=O)CCc2nc3sc4c(c3c(=O)[nH]2)CCCCC4)c1	i
Cc1noc(C)c1S(=O)(=O)NC(C)Cc1ccco1 (centres undefined)	i
O=C(Cc1cccs1)NCCCN1CCN(c2ccccc2)CC1	i
Cc1ccc(S(=O)(=O)NCC(c2cn(C)c3ccccc23)N(C)C)c(C)c1 (centres undefined)	i
NC(=O)c1nnn(-c2ccc(NC(=O)c3ccc4nsnc4c3)cc2)n1	i
O=C(/C=C/c1ccsc1)N(Cc1ccoc1)Cc1cccs1	i
COCc1c(C(C)C)nc(C(C)C)c(/C=C/[C@@H](O)C[C@@H](O)CC(=O)O)c1-c1ccc(F)cc1	i
CCOc1ccc(N(C)S(=O)(=O)c2ccsc2C(=O)Nc2ccc(Cl)cc2)cc1	i
Cc1oc2cc(O)ccc2c(=O)c1-c1ccc(Cl)cc1	i
CCCOc1cccc(C2c3c(oc4cc(C)c(C)cc4c3=O)C(=O)N2CCCN(C)C)c1 (centres undefined)	i
CC(C)N1CCc2c(sc(NC(=O)Cc3cccs3)c2-c2nc3ccccc3s2)C1	i
CCC(C(=O)N1CCC(CSCc2ccco2)CC1)c1ccccc1 (centres undefined)	i
CCC(C(=O)Nc1ccccc1OC)n1cccc(-c2nc(-c3cnccn3)no2)c1=O (centres undefined)	i
NS(=O)(=O)c1ccc(CNC(=O)c2coc(NC(=O)c3cnccn3)n2)cc1	i
O=C(Cn1nc(-c2ccco2)c2sc(N3CCCC3)nc2c1=O)Nc1ccc2c(c1)OCCCO2	i
CCCCCNC(=O)CCn1c(=O)[nH]c2ccccc2c1=O	i
COc1ccccc1-c1cc(C(=O)NCCc2cccs2)[nH]n1	i
CCOCC(=O)Nc1cc(C)nn1-c1nc(-c2ccc(OCC)cc2)cs1	i
CC(=O)N(C)c1ccc(OCC(O)Cn2cc(/C=N\NC(N)=O)c3ccccc32)cc1 (centres undefined)	i
O=C1CCC(=O)N1CCN1C(=O)SC(Nc2ccc(Br)cc2)C1=O (centres undefined)	i
COc1ccc(-n2nnc(S(=O)(=O)c3ccc(C)cc3)c2C)cc1OC	i
COC(=O)CN1CCC(COCc2ccc(Cl)cc2)CC1	i
COc1cccc2cc(C(=O)NCc3sc(-c4cccs4)nc3C)oc12	i
COc1ccc(C(O)CN2CCN(c3ccccc3Cl)CC2)cc1 (centres undefined)	i
CC(C)Cn1c(N)c(C(=O)NCCCOC(C)C)c2nc3ccccc3nc21	i
COc1ccc(OC)c(S(=O)(=O)NCCOc2ccccc2)c1	i
COc1cc(C)c(S(=O)(=O)NC2CCCC2)cc1C(C)C	i
CSc1ccc(CNC(=O)CSc2ncccc2-c2nc(C)no2)cc1	i
O=C(Nc1ccc(Br)cc1C(=O)O)c1cccnc1	i
Cc1ccc2nc(C3CN(C(=O)C4CCCC4)C3)[nH]c2c1	i
O=c1c(-c2ccc(O)cc2)coc2cc(O)cc(O)c12	i
CC(C)Sc1ccc(CC(=O)N2CC(c3nc(-c4ncccn4)no3)C2)cc1	i
Cc1nc(SCc2nc(-c3cccc(C(F)(F)F)c3)no2)[nH]c(=O)c1C	i
O=C(CSc1ncc(CO)n1Cc1ccc(Cl)cc1)Nc1cccc([N+](=O)[O-])c1	i
Cc1cc(C)cc(Oc2cc(SCC(=O)Nc3ccc(F)cc3Cl)ncn2)c1	i
CC(=O)Nc1ccc(NC(=O)c2cn(-c3cc(N4CCC(C)CC4)ncn3)cn2)cc1	i
Cc1ccc(C(=O)Nc2cccc3cnccc23)cc1S(=O)(=O)N1CCOCC1	i
O=C(COc1ccc2c(c1)C(=O)CC2)Nc1nc2ccc(Cl)cc2s1	i
COc1ccc(CNC(=O)Cn2cccc(-c3nc(-c4ccc(Cl)cc4)no3)c2=O)cc1	i
N#Cc1nc(-c2ccc(S(=O)(=O)N3CCCCC3)cc2)oc1N1CCCC1	i

Next part (3 carried over from the part before).
Structure	GIRK2 act
O=C(COc1ccc2c(c1)C(=O)CC2)Nc1nc2ccc(Cl)cc2s1	i
COc1ccc(CNC(=O)Cn2cccc(-c3nc(-c4ccc(Cl)cc4)no3)c2=O)cc1	i
N#Cc1nc(-c2ccc(S(=O)(=O)N3CCCCC3)cc2)oc1N1CCCC1	i
Cc1ccc(NC(=O)CN2CCN(C(=O)c3sc4ncccc4c3-n3cccc3)CC2)cc1	i
CC(C)N(CC#CCNC(=O)Nc1ccc(F)cc1)C(C)C	i
CC(=O)CSc1nc2c(c(=O)n(Cc3ccccc3)c(=O)n2C)n1C	i
Cc1ccccc1OCC(=O)N1CC2CC1C(=O)O2 (centres undefined)	i
COc1cccc(-n2cc(C(=O)OCc3cc(=O)n4ccccc4n3)c3ccccc3c2=O)c1	i
COc1ccccc1C1(CNC(=O)C(C)(C)C)CCOCC1	i
COc1ccc(-c2ccc(N3CCN(C(=O)Nc4cc(OC)cc(OC)c4)CC3)nn2)cc1	i
CC(C)N(CC#CCNC(=O)c1cc(-c2ccco2)on1)C(C)C	i
Cc1ccccc1OCC(=O)Nc1onc2c1CSC2	i
Cc1ccccc1NC(=O)Cn1cccc(-c2nc(-c3ccc(Cl)cc3)no2)c1=O	i
O=C(CN1CC(c2nc(-c3cccs3)no2)C1)Nc1nc2ccccc2s1	i
O=C(NCC1(c2cccs2)CCCCC1)c1ccc2c(c1)OCO2	i
CC12CCC(C(=O)Oc3ccc4ccccc4c3)(CC1=O)C2(C)C (centres undefined)	i
Cc1nn(C)cc1S(=O)(=O)N(Cc1ccccc1)C(C)C	i
O=C(NCCc1ccccc1)c1ccc(Cl)cc1[N+](=O)[O-]	i
O=C(CNC(=O)c1c[nH]c2ccccc12)NCCC1=CCCCC1	i
CCOc1ccc(NC(=O)c2sccc2S(=O)(=O)N(C)c2cccc(C)c2)cc1	i
CCOc1cc(/C=N\Nc2nc3c(c(=O)n(C)c(=O)n3C)n2Cc2ccccc2)ccc1O	i
Cc1c(CNC(=O)Cn2nnc3ccccc32)sc2nc(-c3ccc(F)cc3)cn12	i
O=C(CCCCCn1nnc2ccccc2c1=O)Nc1ccc2c(c1)OCCO2	i
O=C(NCCOc1ccccc1)NCCN1CCN(c2ccc(F)cc2)CC1	i
Cc1ccc(-c2ccc(N3CCCC(C(=O)NCc4ccco4)C3)nn2)cc1C (centres undefined)	i
O=c1cc(CCl)c2cc3c(cc2o1)OCO3	i
O=C(NCc1ccccc1)c1cn(-c2cccc(Cl)c2)nn1	i
COc1cccc(CSc2nc(CC(=O)Nc3ccc(OC)c(Cl)c3)cc(=O)[nH]2)c1	i
O=C(NCCn1nc(C2CC2)n(-c2ccccc2)c1=O)C1COc2ccccc2O1 (centres undefined)	i
Cc1nnc(C2CCCN(C(=O)c3nc4ccccc4s3)C2)s1 (centres undefined)	i
COc1ccc(NC(=O)CSc2ccc(-n3cnc(-c4ccccc4)c3)nn2)cc1	i
CCc1ccc(N2CC(c3nc(-c4ccc(N(C)C)cc4)no3)CC2=O)cc1 (centres undefined)	i
COCCc1nnc(NC(=O)c2ccc3c(c2)CCCC3)o1	i
Cn1c(SCc2nc(-c3ccc(Cl)cc3)no2)nc2cc3c(cc2c1=O)OCO3	i
O=C(Nc1ccccc1Cl)N(Cc1ccoc1)Cc1cccs1	i
CSCC(C)(O)CNC(=O)c1cc2ccccc2oc1=O (centres undefined)	i
COc1ccc(OC)c(-n2c(C)c(C)n3c4c(=O)n(CCN5CCOCC5)c(=O)n(C)c4nc23)c1	i
O=C(C1=Cc2cc(Br)ccc2OC=C1)N1CCOCC1	i
CCOc1ccc(NS(=O)(=O)N(C)C)cc1	i
Cc1ccccc1C(=O)Nc1ccccc1NC(=O)Nc1ccccc1C(F)(F)F	i
Cc1ccc2c(c1)NC(=O)c1cc(NS(=O)(=O)CCN3C(=O)CCCC3=O)ccc1O2	i
CCN1CCN(C(=O)C(=O)c2c[nH]c3ccccc23)CC1	i
Cc1c(-c2nn3c(Cc4ccccc4)nnc3s2)nnn1-c1cccc(C(F)(F)F)c1	i
CS(=O)(=O)N1CCC(C(=O)Nc2c3c(nn2CC(=O)NCCc2ccccc2)CSC3)CC1	i
COc1cccc(NC(=O)CSc2nc3cc(-c4ccccc4)sc3c(=O)n2C)c1	i
COc1ccc(CC(=O)NCC2CCC(c3nc4ccccc4n3C)CC2)cc1 (centres undefined)	i
COC(=O)c1ccc(CN2CCC(c3nnc(-c4ccsc4)o3)CC2)cc1	i
Cc1nc(N2CCN(C(=O)c3ccco3)CC2)cc(-n2cccn2)n1	i
O=S(=O)(Nc1cnc(Oc2ccccc2F)nc1)c1ccc(OC(F)(F)F)cc1	i
COc1ccccc1NC(=O)CSc1ncc(S(=O)(=O)c2ccc(C)cc2)c(N)n1	i
O=C(NCCC(O)c1cccc2ccccc12)c1ccc2c(c1)OCO2 (centres undefined)	i
CCc1c(C)nc(SCc2nc(-c3ccc(OC)cc3)oc2C)[nH]c1=O	i
O=S(=O)(c1ccc(OC(F)(F)F)cc1)N1CCC(COCc2ccccc2)CC1	i
COc1cccc(S(=O)(=O)NCc2ccc(C(=O)Nc3ccc(C)cc3)cc2)c1	i
CCc1cc2c(CSc3nc(C)cc(C)c3C#N)cc(=O)oc2cc1O	i
O=C(CN1CCN(Cc2nc(-c3ccco3)cs2)CC1)NCCc1ccccc1	i
O=C(Cc1cccs1)NC1(c2nc(C3CC3)no2)CCCCC1	i
O=c1ccn(-c2ccc(F)c(F)c2)nc1-c1nc(-c2ccc(F)c(Cl)c2)no1	i
Cc1ccc(C)c(C(=O)NCCC(O)c2ccoc2)c1 (centres undefined)	i
O=C(Nc1cc2ccccc2oc1=O)c1csc(-c2cnccn2)n1	i
COC(=O)c1ccc(C2C3C(=O)N(c4ccccc4)C(=O)C3ON2c2ccccc2C)cc1 (centres undefined)	i
Cc1cc(O)c2c(CN3CCN(CCO)CC3)cc(=O)oc2c1	i
CCCCCC/C=C\CCCCCCCC(=O)OCC	i

(next part)
Structure	GIRK2 act
CC1CCN(c2nccnc2Oc2ccc(C(=O)Nc3ccc4c(c3)OCCO4)cc2)CC1	i
O=C(NCCNc1cc(Nc2ccccn2)ncn1)c1cccs1	i
COc1ccc(-n2c(C)cn3c4c(=O)n(CC(C)C)c(=O)n(C)c4nc23)c(OC)c1	i
COc1cccc2cc(C(=O)Nc3nnc(-c4cc(C)oc4C)o3)c(=O)oc12	i
COc1ccc(-c2nn3c(NCC4CCCO4)cc(C)nc3c2C)cc1OC (centres undefined)	i
O=C(CCn1ccc(=O)[nH]c1=O)N1CC(c2nc(-c3ccncc3)no2)C1	i
CCc1ccc(N2C(=O)C3N=NN(CC(=O)Nc4ccc(Oc5ccccc5)cc4)C3C2=O)cc1 (centres undefined)	i
O=C(CN1CC(c2nc(-c3cccc(Cl)c3)no2)C1)NCC1CCCO1 (centres undefined)	i
Cc1nc(OCC(=O)NCCc2ccccc2)cc(-n2cccn2)n1	i
COc1ccc(NC(=O)c2nnn(-c3ccc(C)c(C)c3)c2-c2cccnc2)cc1Cl	i
O=C(CN1CCC(c2nnc(-c3ccco3)s2)CC1)OCc1ccccc1	i
Cc1nc(-c2ccccc2)sc1CNC(=O)C(C)Oc1ccccc1F (centres undefined)	i
O=C(NCC1(c2ccccc2)CCOCC1)c1cc(-c2ccco2)on1	i
